Cruzain noTriton: qHTS Assay for Promiscuous and Specific Inhibitors of Cruzain (without detergent); purified cruzain, Z-FR-AMC fluorescence, no detergent; Potency, µM, inactives show max response, negative = inhibition, actives largely listed as inhibitors; hit rate 2.3% among 200,000;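 also: plate controls were enzyme without inhibitor for no effect and buffer without enzyme for full effect; nearly all actives have a fitted effect of over 40% in size; top concentration of the series not given in the record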
Target sequence (P25779 123-467 limits assumed): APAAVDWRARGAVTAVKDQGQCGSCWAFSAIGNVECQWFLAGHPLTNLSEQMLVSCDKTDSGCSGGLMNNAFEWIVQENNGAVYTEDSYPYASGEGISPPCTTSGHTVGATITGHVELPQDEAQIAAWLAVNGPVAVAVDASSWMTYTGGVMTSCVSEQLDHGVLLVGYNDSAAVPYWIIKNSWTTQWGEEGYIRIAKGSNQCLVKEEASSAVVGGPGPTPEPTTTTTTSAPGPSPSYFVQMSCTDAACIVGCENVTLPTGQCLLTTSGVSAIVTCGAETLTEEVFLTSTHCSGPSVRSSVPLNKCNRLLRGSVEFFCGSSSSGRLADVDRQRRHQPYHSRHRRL
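Purified cruzain at 1.5 nM, pre-incubated 15 min with compound at room temperature in 100 mM sodium acetate pH 5.5, 5 mM DTT, 0.00005% Triton X-100. Reaction started with 2 uM Z-FR-AMC; AMC fluorescence increase over 60 s gives rate.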
Cruzain Triton: qHTS Assay for Promiscuous and Specific Inhibitors of Cruzain (with detergent). Cruzipain (Trypanosoma cruzi), P25779. purified cruzain, Z-FR-AMC fluorescence, 0.01% Triton. Potency, µM, for the others: max response, negative = inhibition, most hits filed as inhibitors. hit rate 0.43% among 200,000. AID 1478, 2009;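 also: plate controls were neutral wells for no effect and buffer without enzyme for full effect; nearly all actives have a fitted effect of over 40% in size; top concentration of the series not given in the record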
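15 min RT preincubation of 1.5 nM cruzain with compound, then 2 uM Z-FR-AMC added; kinetic AMC fluorescence, 60 s delta. Triton X-100 0.01%, pH 5.5.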
MARV entry inh: qHTS for inhibitors of binding or entry into cells for Marburg Virus; Marburg virus pseudotyped entry inhibition, cell reporter; control for the full effect not named in the record; about a third of the inactives were read at about 46 µM; Potency, µM (highest dose often 37.8 µM), without a hit: at the highest dose activity change, negative = inhibition, usual class: inhibitors; hit rate 1.8% among 300,000; AID 540276, 2011; active = well fitted inhibition curve with a large enough effect; inconclusive = small, poorly fitted or top-dose-only effect, or effect the other way; inactive = flat fitted curve, though single readings scatter; tested in HEK293 cells; about a fifth of its hits are not listed in these tables; also: % is scaled to controls: 0 for no effect and ±100 for the full control effect; luciferase read-out
2A StopGo: High Throughput Screening for Foot and Mouth Disease Virus Antivirals; hit rate 1.2% among 410,000; human cells with a luciferase reporter of 2A StopGo recoding; control for the full effect not named in the record; Potency, µM (highest dose often 57.9 µM), inactives show at the top dose signal change, negative = less light; AID 1159524, 2015; active = well fitted falling curve with a large enough effect; inconclusive = small, poorly fitted or top-dose-only effect; inactive = no such curve, though single readings can be large or run the other way; tested in HEK293T cells; also: % is scaled to controls: 0 for no effect and ±100 for the full control effect; nearly all actives have a fitted effect of over 45% in size; luciferase light after 4 h
NS1 function inh: qHTS Assay for Inhibitors of Influenza NS1 Protein Function; S. cerevisiae slowed by influenza A NS1, growth recovery by OD600; Potency, µM (series often up to 46.1 µM), without a hit: at the top dose activity, positive = more growth; hit rate 0.4% among 270,000; active means well fitted rising curve with a large enough effect; inconclusive means small, poorly fitted or top-dose-only effect; inactive means no such curve, though single readings can be large or run the other way; also: nearly all actives have a fitted effect of over 50% in size
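Compounds were scored for reversing the slow growth caused by influenza A NS1 in S. cerevisiae, measured by optical density at 600 nm. Assay medium contained 2% galactose at pH 6.0; NS1-free yeast of the same strain were the positive control.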
RE007 growth inh: qHTS Assay for Inhibitors of the HIV-1 protein Vpr | hit rate 0.21% among 360,000 | Potency, µM (top dose mostly 92.2 µM), inactives show at the top dose activity change, negative = less growth | S. pombe RE007 Vpr strain, BacTiter-Glo ATP luminescence, 24 h; control for the full effect not named in the record; active = well fitted falling curve with a large enough effect; inconclusive = small, poorly fitted or top-dose-only effect; inactive = no such curve, though single readings can be large or run the other way;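 also: % is scaled to controls: 0 for no effect and ±100 for the full control effect; nearly all actives have a fitted effect of over 50% in size; the assay follows cell death caused by Vpr and the record does not say whether a fall means rescue or toxicity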
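Fission yeast RE007 carrying one integrated HIV-1 vpr copy, seeded at OD 0.01 in PMG+AL medium with 23 nL pinned compound. Grown 24 h at 30 degrees; viability read by BacTiter-Glo luminescence after 5 min.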
SARS PLP yeast: qHTS of Yeast-based Assay for SARS-CoV PLP; S. cerevisiae expressing SARS-CoV PLpro, growth rescue; control for the full effect not named in the record; Potency, µM (highest dose often 32.9 µM), for inactives: at the highest dose activity, positive = growth rescue; hit rate 0.19% among 330,000; AID 485353, 2010; active means well fitted rising curve with a large enough effect; inconclusive means small, poorly fitted or top-dose-only effect; inactive means no such curve, though single readings can be large or run the other way; also: 0% is about no effect; nearly all actives have a fitted effect of over 55% in size; growth read by luminescence after 48 h
Lassa entry inh: qHTS for Inhibitors of binding or entry into cells for Lassa Virus | Lassa virus pseudotype entry inhibition, cell reporter; control for the full effect not named in the record | Potency, µM (titrated, usually from 37.9 µM), for inactives: at the top dose activity change, negative = inhibition, hits mostly inhibitors | hit rate 1.2% among 300,000 | AID 540256, 2011; active means well fitted inhibition curve with a large enough effect; inconclusive means small, poorly fitted or top-dose-only effect, or effect the other way; inactive means flat fitted curve, though single readings scatter; tested in HEK293 cells; also: % is scaled to controls: 0 for no effect and ±100 for the full control effect; nearly all actives have a fitted effect of over 50% in size; luciferase read-out
Numbers without * were called inactive; ? = inconclusive; / = not tested or not shown; & = joins results of further samples; [ ] = another dose, or the depositor's remark. Unless noted, calls follow the shape of the dose curve; as a rule, active = well fitted curve in the direction sought with a large enough effect; inconclusive = small, poorly fitted or top-dose-only effect, or another doubt; inactive = no such curve, though single readings can be large; an effect the other way counts as inactive or inconclusive. Potency is read from the fitted curve at half-maximal effect.

SMILES | Cruzain noTriton | Cruzain Triton | MARV entry inh | 2A StopGo | NS1 function inh | RE007 growth inh | SARS PLP yeast | Lassa entry inh
COC(=O)c1ccc(NC(=O)CSc2n[nH]c(-c3ccccc3)n2)cc1 | -7% | -3.0% | / | -10% | / | / | / | 14%[46.1 µM]
CCOC(=O)c1[nH]c2ccc(OC)cc2c1NS(=O)(=O)c1ccc(OC)cc1OC | 15% | -5.9% | ? | 35%[activator] | -5% | 22% | -1% | 9%
O=C(N/N=C/c1c(O)n(-c2ccccc2)c(=O)[nH]c1=O)c1ccncc1 | 2% | -9.6% | ? | -8% | 18% | -9% | -10% | 2%
CCn1c2c(c3cc(OCC(C)C)ccc31)CCCC2=O | -4% | -13% | -14% | / | -5% | -20% | -13% | ?
O=C(COC(=O)c1ccccc1NC(=O)c1ccccc1)c1cccc([N+](=O)[O-])c1 | ? | -5.7% | 1% | -4% | -1% | -6% | -4% | 0%
CCOc1ccc(S(=O)(=O)Nc2cc(Sc3ncn[nH]3)c3oc(=O)sc3c2)cc1 | -13% | -26% | / | / | 10% | / | 2% | /
COCCNC(=O)C1CC2Cn3c(nc4ccccc43)C2N1C (stereo not drawn) | / | / | / | -14% | 8% | 0% | 0% | /
CC(Sc1nnc(-c2ccccc2)c(-c2ccccc2)n1)C(=O)NCC1CCCO1 (stereo not drawn) | / | / | ? | -21% | / | 22% | -1% | ?
Fc1ccc2c(c1)C(c1ccncc1)=NNC(c1ccc(Cl)cc1)=N2 | -23% | 0.5% | -10% | ? | -48% | -28% | -8% | -1%
C/C(CC(=O)Nc1ccc(Cl)cc1Cl)=N\NC(=O)C(=O)N1CCCC1 | / | / | -2%[46.1 µM] | 0% | / | 2% | 0% | /
COC(=O)c1sc(N2C(=O)C(O)=C(C(=O)c3ccc(C)o3)C2c2ccc([N+](=O)[O-])cc2)nc1C (stereo not drawn) | / | / | / | -3% | -15% | -17% | -4% | /
O=C(NNC(=O)C1CC1)c1cc2cc3ccccc3nc2s1 | / | / | / | 16% | -2% | 9% | 0% | /
O=C(CN(CCN1CCOCC1)C(=O)Cn1nnc(-c2ccc(F)cc2)n1)NC1CCCCC1 | 2% | -4.3% | 4% | -14% | -14% | 15% | -1% | 10%
Cc1nc2nc(C)c(NS(=O)(=O)c3ccc4c(c3)CCCC4)c(=O)n2[nH]1 | / | / | ? | -3% | 28% | 2% | 0% | 2%
COc1cc2c(cc1OC)C(C(=O)Nc1cc(OC)c(OC)c(OC)c1)C(c1cccnc1)N(C)C2=O (stereo not drawn) | / | / | -23%[46.1 µM] | -3% | / | -14% | -6% | 30%[46.1 µM]
COc1ccc(N(CC(=O)N/N=C/c2ccc(F)cc2)S(=O)(=O)c2ccccc2)cc1 | / | / | ? | -2% | -1% | -2% | 1% | ?
O=C(NCCc1ccccc1)c1ccc(CS(=O)(=O)Cc2ccccc2Cl)o1 | -7% | 0.2% | / | ? | / | / | / | -12%[46.1 µM]
COC(=O)c1sccc1NC(=O)Nc1cccc(F)c1 | / | / | 1%[46.1 µM] | 16% | / | ? | -2% | -2%[46.1 µM]
Cc1cc(NC(=O)CCN2CCN(C/C=C/c3ccccc3)CC2)ccc1Br | / | / | ? | ? | -37% | -9% | 1% | -24%
COc1ccc(C(=O)OCC(=O)N2CCCC2=O)c(OC)c1 | / | / | -4%[46.1 µM] | 76%[activator] | 6% | -5% | -2% | -4%
CC1CCCCN1S(=O)(=O)c1ccc(S(=O)(=O)N2CCN(c3ccc(F)cc3)CC2)cc1 (stereo not drawn) | ? | 5.1% | 2%&-21% | -12% | ? | -4% | 7% | -20%
O=C(/C=C/c1ccco1)NC(=S)Nc1ccc(N2CCCC2)cc1 | ? | -13% | -20% | -11% | 26% | -10% | 5% | ?
Cc1cccnc1NC(=O)c1ccc(Br)o1 | / | / | ? | -12% | / | 9% | 0% | 7%
Cc1cc2oc(=O)c(CC(=O)O)c(C)c2c2occ(-c3ccccc3)c12 | -2% | -22% | ? | 31%[activator] | / | / | / | 13%[46.1 µM]
CCCC(=O)Nc1nnc(SCc2cc(=O)c3cc(C)ccc3[nH]2)s1 | 3% | 3.9% | / | ? | / | / | / | 4%[46.1 µM]
CCCCCOc1ccc(CSCCNC(=S)Nc2ccccc2)cc1 | -11% | -4.0% | 3% | 25% | -2% | ? | 12% | -16%
Cc1sc2ncnc(OCC(=O)N3CCN(S(=O)(=O)c4ccc(Cl)cc4)CC3)c2c1C | ? | -0.5% | -2% | -15% | 4% | 13% | 0% | -23%
Cc1nc(=O)cc(-c2ccccc2)n1-c1ccccc1 | -11% | 4.7% | 3% | -9% | 0% | -19% | 2% | 2%
O=C(COC(=O)CCc1ccccc1)NC1CCS(=O)(=O)C1 (stereo not drawn) | / | / | ? | -13% | / | 2% | -4% | 8%
COc1ccccc1-c1c(C)nn2c(N)c(-c3ccc(Cl)cc3)cnc12 | / | / | -5% | 0% | 2% | 5% | ? | 10%
O=C(COC(=O)CCC(=O)c1cccs1)NCc1cccs1 | / | / | -3% | -5% | 7% | -12% | 0% | -12%
CCN(CC)P1(=O)OC(c2cc(OC)c(OC)c(OC)c2)=Nc2c1c(C)nn2-c1ccccc1 (stereo not drawn) | ? | 1.4% | -7% | / | -38% | 10% | -16% | -24%
O=C(Oc1cccc(/C=N/NC(=O)c2ccccn2)c1)c1ccc([N+](=O)[O-])cc1 | / | / | -29% | -30% | -18% | 3% | -1% | ?
COc1ccc(N2C(=O)CSC23C(=O)N(CC(=O)NCCc2ccccc2)c2ccccc23)cc1 (stereo not drawn) | -8% | -2.6% | / | -10% | / | / | / | -3%[46.1 µM]
COc1ccc(CC(=O)N/N=C/c2ccc(C)s2)cc1 | / | / | 3% | 17% | / | 5% | / | ?
COCCCN(C(=O)CC1OC(=O)c2ccccc21)c1c(N)n(Cc2ccccc2)c(=O)[nH]c1=O (stereo not drawn) | / | / | 12% | -23% | 7% | -11% | 0% | 16%
O=c1c2sccc2[nH]c(=S)n1-c1ccccc1 | / | / | 1%[46.1 µM] | -12% | 6% | -11% | 1% | 1%
Cc1ccc(C(=O)N2CCN(c3ccc(NC(=O)c4ccc5c(c4)OCCO5)cc3)CC2)cc1 | / | / | ? | 14µM* | 14% | -4% | 1% | ?
CC1CC2(C)CC(C)C1(COC(=O)Nc1ccccc1)CO2 (stereo not drawn) | / | / | 18%[46.1 µM] | 14% | -5% | 20% | 0% | ?
CNc1nc2cccnc2s1 | / | / | / | 12% | 3% | -1% | 0% | /
C=CCn1c(SCC(=O)N2CCc3ccccc3C2)nc2sc(CC)cc2c1=O | -5% | -9.7% | ? | ? | 1% | 11% | 10% | ?
CC(Sc1nnnn1C)C(=O)Nc1ccc(Oc2ccccc2)cc1 (stereo not drawn) | -10% | 1.7% | -1% | -15% | -28% | 7% | -13% | 1%
COc1ccc(NC(=O)COC(=O)/C=C/c2cnc3ccccc3n2)cc1 | / | / | -5%[46.1 µM] | 29% | 8% | -7% | 10% | 1%
CC1CCC/C(=N\NC(=S)NCc2ccccc2)C1 (stereo not drawn) | -2% | -1.2% | 18% | 28% | 6% | -7% | 21% | ?
CCOC(=O)c1c(C)nc2c(C)cccn12 | -3% | 2.9% | 8% | -13% | -31% | -22% | -9% | 8%
N/C(CC(=O)Nc1ccc(F)c(Cl)c1)=N\OC(=O)c1cccs1 | / | / | ? | ? | -1% | 11% | 0% | -6%
Cc1ccc(S(=O)(=O)N(CC(O)CN2C(=O)NC(C)(C)C2=O)c2cccc(C)c2)cc1 (stereo not drawn) | / | / | 9%[46.1 µM] | -2% | 2% | 9% | 0% | -9%
COC(=O)C/C(C)=N/Nc1ccc(S(=O)(=O)N2CCCC2)cc1[N+](=O)[O-] | -1% | -3.2% | -2% | 10% | ? | -1% | 1% | /
CC(C)(C)c1ccc(-n2ncc3c2CCCC3NC(=O)C2=NNC(=O)CC2)cc1 (stereo not drawn) | / | / | / | ? | 9% | -4% | -4% | /
O=C(Cn1c(=O)n(-c2cccc(Cl)c2)c(=O)n1CC(=O)N1CCCCC1)N1CCCCC1 | 5% | 6.4% | ? | 15% | -10% | 6% | 1% | 15%
CC1CCN(C(=O)C2CCC(CNc3c(N4CCCCC4)c(=O)c3=O)CC2)CC1 (stereo not drawn) | / | / | / | -21% | -1% | 10% | 1% | /
CCNC(=O)c1c(NC(C)=O)sc2c1CCCC2 | -12% | 4.6% | -10% | -8% | -1% | 0% | -1% | 0%
OC(CNCc1ccc(Cl)cc1)C(F)(F)F (stereo not drawn) | / | / | 4% | -6% | 5% | -4% | 0% | 13%
COc1ccc(N(C(=O)c2cccc(C)c2)S(=O)(=O)c2ccc(C)cc2)cc1 | -9% | -5.3% | / | -12% | / | / | / | ?
O=C(Nc1ccc2c(c1)OCO2)c1cnccn1 | / | / | 26%[46.1 µM] | 50%[activator] | / | 3% | 1% | /
COc1ccc(O)c(C(=O)c2cc(C#N)c(=O)n(-c3ccc(Cl)cc3)c2)c1 | / | / | / | 13% | 3% | 5% | 0% | /
COCCN1C(=O)NC(=O)/C(=C\c2ccc(F)cc2)C1=O | / | / | / | -5% | 9% | -2% | 3% | /
Cc1cc(-c2ccccc2)nc(N2CCC(C(=O)NC(C)C)CC2)n1 | 1% | 4.8% | ? | 50%[activator] | 4% | -11% | 2% | ?
CCS(=O)(=O)c1ccc(O)c(NC(=O)Nc2ccccc2OC)c1 | / | / | 14%[46.1 µM] | -2% | -1% | 12% | 1% | 15%[46.1 µM]
CCS(=O)(=O)Nc1cccc(C(=O)O)c1 | / | / | 1% | -12% | 1% | -11% | 0% | /
CCCOc1ccc(C(=O)NC(C)C(=O)O)cc1 (stereo not drawn) | ? | 3.1% | 3% | 21% | 6% | 7% | 4% | 28%

Assay outcomes as filed in PubChem.
